Compound activity from PubChem.
NPYLR7 agonist: activates Aedes aegypti NPYLR7 receptor; hit rate 0.15% among 270,000; activation, % at 10 µM; HEK293T NPYLR7/Galpha15, GCaMP6s calcium fluorescence; AID 1259423; in the data active = activation above about 40%;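 also: 0% = vehicle and 100% = reference agonist at the receptor; some compounds past the cut are filed as inactive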
NPYLR7 agonist max-min: second read-out of NPYLR7 agonist, no call of its own (marks repeat the call); activation, %; measured here: Max-Min RFU normalised activation; some inactives read as strong as hits;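 span of the calcium signal over five minutes; 0% = vehicle and 100% = native peptide agonist; compound fluorescence can raise it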
Active calls of the source: *; & = joins results of further samples.

Results follow in this order: NPYLR7 agonist | NPYLR7 agonist max-min
- Cc1ccc(-c2ccnc(N3C[C@H](OC(C)C)[C@@H](O)C3)n2)c(C)n1
    -9 | -10
- COc1cccc2sc(N(CCCN(C)C)C(=O)COc3ccc(Cl)cc3)nc12
    1 | -2
- Cc1nc(N[C@@H](CO)Cc2ccccc2)c2cnn(C)c2n1
    17 | 13
- COc1ccccc1-n1c(-c2ccc(Cl)cc2)cc(C(=O)N2CCN(c3cccc(C(F)(F)F)c3)CC2)c1C
    4 | 3
- COc1cc(NC(=O)Nc2cccn3nc(COCCO)nc23)cc(OC)c1OC
    -1 | -3
- N#CC(=C(O)CSc1cccc[n+]1[O-])c1nc2ccccc2[nH]1
    3 | 1
- CC1=CC(C)C2C(=O)N(c3cc(Cl)cc(Cl)c3)C1C2CO (stereo not given)
    0 | -1
- CCCCNC(=O)C1(C)CCCCN1C(=O)c1ccc(F)c(C)c1 (stereo not given)
    0 | -2
- OCC1CCCCN1Cc1nc(Cc2ccccc2)no1 (stereo not given)
    0 | -2
- CCN(C(=O)CN1CCN(Cc2ncc[nH]2)CC1)c1ccccc1
    13 | 9
- CCN(CC)CCCn1c2c(c(SCC(=O)Nc3ccc(C(C)C)cc3)nc1=O)CCC2
    -2 | 5
- CCc1nc2c(OCCOC)cccn2c1N(C=O)Cc1ccccc1
    12 | 9
- CC(C)(C)c1cc(C(=O)N2CCN(CCCOC(c3ccc(Cl)cc3)c3ccc(Cl)cc3)CC2)n(Cc2ccccc2)n1
    4 | 1
- Cc1cccc(Cn2cnc3c(nnn3-c3ccc(C)c(Cl)c3)c2=O)c1
    0 | -6
- Cc1ccccc1NC(=O)CCN1C(=O)c2ccccc2C1=O
    -4 | -8
- Cc1ccc(NCc2ccc(C(=O)N3CCC(C(=O)O)CC3)cc2)cc1
    -7 | -9
- C[C@@]12CO[C@H](c3ccccc3)C[C@@H]1C[C@H](N1CCN(Cc3ccc4c(c3)OCO4)CC1)C2
    -2 | 6
- CC1(C(=O)NCC2CCCCC2)CCN1C(=O)CCc1cccs1 (stereo not given)
    -2 | -4
- O=[N+]([O-])C(C=Nc1ccc(Cl)cc1)=CNc1ccc(Cl)cc1
    2 | 1
- O=C(O)c1ccccc1N=Nc1c(O)n(Cc2ccc(F)cc2)c2ccccc12
    -2 | -5
- CO[C@H]1[C@H](NC(=O)c2ccccn2)c2ccccc2C12CCN(C(=O)Cc1ccccc1F)CC2
    1 | -3
- O=C(Nc1ccccc1NS(=O)(=O)c1ccc2[nH]cc(C(=O)O)c(=O)c2c1)c1ccccc1
    -8 | -11
- COc1c[nH]c(C(=O)Nc2cc(C)cc(C)c2)cc1=O
    -2 | -4
- CC(c1ccccc1)N1CCN(C(=O)c2ccco2)CC1 (stereo not given)
    -3 | 0
- COc1cccc(N2CC(NC(=O)Nc3ncccc3C)CC2=O)c1 (stereo not given)
    3 | 2
- O=C(CN1CSCC1=O)N1CCN(c2ncccn2)CC1
    1 | 0
- Clc1ccccc1-c1cc(C2CCN(Cc3cc4n(n3)CCNC4)CC2)[nH]n1
    19 | 15
- Cc1ccc(Nc2ccc(N3CCN(S(=O)(=O)c4c(C)cc(C)cc4C)CC3)nn2)cc1
    0 | -1
- CC(Sc1nnc(COc2ccc(F)cc2)o1)C(=O)NC(=O)NC1CC1 (stereo not given)
    -1 | -3
- CCSc1nc(=O)[nH]c2c1CCC2
    -3 | -7

More results:
Results follow in this order: NPYLR7 agonist | NPYLR7 agonist max-min
- C/C=C(\C)C(=O)Nc1c(-c2ccc3c(c2)OCO3)cn(C)c1C(=O)OCC
    -3 | -8
- COCCN(Cc1ccccc1)CC(O)COc1ccc(Cl)cc1 (stereo not given)
    17 | 16
- BrC(=Cc1ccccc1)C1Nc2cccc3cccc(c23)N1
    6 | 4
- COCC(=O)N1CCN(C(=O)c2cc(-c3ccc(OC)cc3)n(-c3ccc(C)cc3)c2C)CC1
    -5 | 3
- COc1ccc(-c2nc3ccccn3c2NC(=O)COCc2ccccc2)cc1
    -7 | 1
- Cc1cc(C)c(NC(=O)CN(C)C(=O)c2cnc3c(cnn3C(C)C)c2)c(C)c1
    6 | 2
- Cc1ccccc1C(NC(=O)C1CCN(CCCOc2ccccc2)CC1)c1ccsc1 (stereo not given)
    -4 | -9
- O=C1/C(=C/c2ccc(O)c(O)c2)SC(=S)N1C1CCCCC1
    0 | 3
- COc1ccc(NC(=O)CSc2nc(C)cc(=O)[nH]2)cc1
    -1 | 1
- CCOC(=O)CC1CCCCN1C(=O)Nc1ccc(OC)cc1C (stereo not given)
    7 | 4
- CCC(=O)Nc1cc(-c2cccs2)nn1-c1nc(C)cc(=O)[nH]1
    -6 | -8
- CCOC(=O)c1c(NC(=O)c2oc3ccccc3c2C)c(-c2ccc(OC)cc2)cn1Cc1ccccc1
    4 | -1
- CCOC(=O)C1CCN(CC(=O)N2N=C(c3cccc(OC)c3)CC2c2ccccc2F)CC1 (stereo not given)
    -3 | 0
- Cc1ccc(OCC(=O)N2CCCC(C(=O)O)C2)c(C)c1 (stereo not given)
    -3 | -3
- NCC1CC12CCCc1ccccc12 (stereo not given)
    -1 | 6
- CC(C)(C)n1nc2c(c1NC(=O)c1ccc3c(c1)OCO3)CSC2
    -4 | -5
- Cn1cc(S(=O)(=O)Nc2ccc(N3CCCC3)c(Cl)c2)cn1
    -4 | -5
- Cc1cc(C(C)NC(=O)N2CCC(n3cncn3)CC2)c(C)s1 (stereo not given)
    -20 | -21
- CCCc1cc(C(=O)N2C[C@H](O)[C@@H](N3CCOCC3)C2)cs1
    6 | 5
- CC(C)(C)S(=O)(=O)c1ccc(NCc2ccc3c(c2)OCO3)nn1
    -4 | -8
- CSc1cccc(NC(=O)CSc2nccn3nc(-c4ccc(C)cc4)cc23)c1
    -1 | -3
- CC1=C(C(=O)Nc2cc(C)on2)C(c2ccc(F)cc2F)N(C)C(=O)N1C (stereo not given)
    -6 | -7
- CCCOc1cc(Nc2ccc(NC(=O)Nc3cccc(C)c3)cc2)nc(C)n1
    9 | 7
- CCc1nc2ccc(C(=O)Nc3ccc4c(c3)OCC(=O)N4)cn2c1N(CC)Cc1ccc2c(c1)OCCO2
    23 | 18
- Cc1ccc(OCCN2CCN(c3ncnc4sc5c(c34)CC(C)CC5)CC2)cc1 (stereo not given)
    9 | 7
- CCCN(Cc1ccc(C#N)cc1)Cn1ncn(C2CC2)c1=S
    2 | 2
- O=C(NC1CCCCCC1)N1CCN(C(c2ccccc2)c2ccccc2)CC1
    20 | 10
- COc1ccc(NCC(=O)NCC(F)(F)F)cc1Cl
    0 | -2
- COC(=O)c1cc(Cl)cc(NCc2cccc(C(N)=O)c2)c1
    8 | 6
- COc1ccccc1C1CC(c2ccc(Br)cc2)=NN1C(C)=O (stereo not given)
    4 | 6

Additional results follow.
Results follow in this order: NPYLR7 agonist | NPYLR7 agonist max-min
- COc1ccc(Nc2cc(C)nc(N3CCN(C(=O)c4cccc5ccccc45)CC3)n2)cc1
    10 | 3
- CC(C)n1cc(CN2CCC(Oc3ccc(C(=O)NC4CCCC4)cc3Cl)CC2)cn1
    6 | 6
- CNCC(O)c1ccc(O)c(O)c1 (stereo not given)
    6&36&69 | 5&23&32
- O=C(O)c1ccc(CNS(=O)(=O)c2c(F)cccc2F)cc1
    -1 | -1
- CCOc1ccc(C(=O)n2sc(=O)c3ccccc32)cc1OCC
    2 | 1
- Cc1ccccc1C(=O)N1C(C(=O)NCc2ccccn2)COC12CCCC(C)C2 (stereo not given)
    3 | 7
- CCOC(=O)CN(C(=O)c1ccco1)[C@@H]1C[C@@H]2CO[C@H](c3ccccc3)C[C@@H]2C1
    21 | 24
- COC(=O)CC(=O)N1CCC(Cc2ccc(F)cc2)CC1
    4 | 5
- CCOCC(=O)N1CCN(Cc2nnnn2-c2ccc(F)c(F)c2)CC1
    0 | 0
- CN(Cn1nc(-c2ccccc2)oc1=S)c1ccccc1
    -10 | -11
- Nc1ncc(CN2CCc3ccc(NC(=O)C4CCCO4)cc3C2)cn1 (stereo not given)
    11 | 3
- Cc1ccccc1-n1ncc(C(=O)N2CCN(CC(F)(F)F)CC2)c1C1CC1
    -9 | -8
- O=C(CN(CC1CCCO1)C(=O)Nc1cccc(Br)c1)N(Cc1ccc2c(c1)OCO2)Cc1ccco1 (stereo not given)
    -1 | 4
- CCOC(=O)C1(Cc2ccccc2C)CCCN(Cc2ccc(NC(C)=O)cc2)C1 (stereo not given)
    0 | 15
- O=C(NCCCn1cccn1)N1CCSC2(CCCCC2)C1
    7 | 5
- COc1cccc(CN(C)c2nc(CN3CCOCC3)nc3sc4c(c23)CCC4)c1OC
    2 | 0
- CC(C)CN1CC(C(=O)NCc2cc(-c3ccco3)on2)CC1=O (stereo not given)
    -1 | -6
- Cc1cccc(C)c1CN1CCCC(CNC(=O)c2cnccn2)C1 (stereo not given)
    11 | 9
- CN(C)C=Nc1cnc2c(c1)c(=O)[nH]c(=O)n2C
    4 | 1
- CC(=O)Nc1ccc(Sc2nc(C)cc(C)c2C#N)cc1
    14 | 9
- CC(=O)C1=C(c2ccc(Cl)cc2)NC(=O)NC1c1ccc(C#N)cc1 (stereo not given)
    8 | 7
- O=C(Cc1ccccc1)NO
    2 | -9
- CCn1c(CC2CCN(C(=O)c3cnn4ccn(C)c34)CC2)nn(C)c1=O
    2 | -1
- Cc1cc(C)n(C(C[N+](=O)[O-])c2ccc(F)cc2)n1 (stereo not given)
    0 | -4
- O=C(c1cccc(Cl)c1)N(CCN1CCCC1)CC(=O)N1CCc2sccc2C1COc1ccc(F)cc1 (stereo not given)
    -3 | -1
- CN(CCc1ccccn1)c1ncccc1CNc1ccnc(N)n1
    -2 | -11
- N#Cc1ccccc1-c1ccc(COc2coc(CN3CCN(S(=O)(=O)c4cc(C(F)(F)F)cc(C(F)(F)F)c4)CC3)cc2=O)cc1
    7 | 4
- Cc1ccc(NC(=O)C2(C)CCN2C(=O)c2ccccc2CCc2ccccc2)cc1C (stereo not given)
    8 | 7
- CN(Cc1cnccn1)Cc1cn(C)nc1-c1ccc(C2CCCCC2)cc1
    7 | 4
- CCCCc1ccc(NC(=O)c2sc3cc(OC)c(OC)cc3c2Cl)cc1
    4 | 4

Single records (already shown). Order of values: NPYLR7 agonist	NPYLR7 agonist max-min
COc1cccc(CN(C)c2nc(CN3CCOCC3)nc3sc4c(c23)CCC4)c1OC is listed with 2	0
Nc1ncc(CN2CCc3ccc(NC(=O)C4CCCO4)cc3C2)cn1 (stereo not given) is listed with 11	3

(further entries)
Results follow in this order: NPYLR7 agonist | NPYLR7 agonist max-min
- O=C(O)c1[nH]c(=O)c2ccccc2c1-c1ccc[nH]1
    -10 | -21
- CCN(CC1CCCO1)C(=O)CCc1nnc(CCCc2ccccc2)o1 (stereo not given)
    -1 | -2
- COc1cccc(Oc2cc(N3CCC(C)CC3)ncn2)c1
    -8 | -1
- O=C(N[C@H]1CCCCNC1=O)c1coc(COc2cccc(C(F)(F)F)c2)n1
    7 | 2
- CCNS(=O)(=O)c1cccc(C(=O)OCc2nc(C(C)C)no2)c1
    -1 | -1

In the list so far, 15 have a Cl atom.
Results follow in this order: NPYLR7 agonist | NPYLR7 agonist max-min
- COc1cccc2sc(N(CCCN(C)C)C(=O)COc3ccc(Cl)cc3)nc12
    1 | -2
- COc1ccccc1-n1c(-c2ccc(Cl)cc2)cc(C(=O)N2CCN(c3cccc(C(F)(F)F)c3)CC2)c1C
    4 | 3
- CC1=CC(C)C2C(=O)N(c3cc(Cl)cc(Cl)c3)C1C2CO (stereo not given)
    0 | -1
- CC(C)(C)c1cc(C(=O)N2CCN(CCCOC(c3ccc(Cl)cc3)c3ccc(Cl)cc3)CC2)n(Cc2ccccc2)n1
    4 | 1
- Cc1cccc(Cn2cnc3c(nnn3-c3ccc(C)c(Cl)c3)c2=O)c1
    0 | -6
- O=[N+]([O-])C(C=Nc1ccc(Cl)cc1)=CNc1ccc(Cl)cc1
    2 | 1
- Clc1ccccc1-c1cc(C2CCN(Cc3cc4n(n3)CCNC4)CC2)[nH]n1
    19 | 15
- COCCN(Cc1ccccc1)CC(O)COc1ccc(Cl)cc1 (stereo not given)
    17 | 16
- Cn1cc(S(=O)(=O)Nc2ccc(N3CCCC3)c(Cl)c2)cn1
    -4 | -5
- COc1ccc(NCC(=O)NCC(F)(F)F)cc1Cl
    0 | -2
- COC(=O)c1cc(Cl)cc(NCc2cccc(C(N)=O)c2)c1
    8 | 6
- CC(C)n1cc(CN2CCC(Oc3ccc(C(=O)NC4CCCC4)cc3Cl)CC2)cn1
    6 | 6
- CC(=O)C1=C(c2ccc(Cl)cc2)NC(=O)NC1c1ccc(C#N)cc1 (stereo not given)
    8 | 7
- O=C(c1cccc(Cl)c1)N(CCN1CCCC1)CC(=O)N1CCc2sccc2C1COc1ccc(F)cc1 (stereo not given)
    -3 | -1
- CCCCc1ccc(NC(=O)c2sc3cc(OC)c(OC)cc3c2Cl)cc1
    4 | 4

These rows are one share of the data, so the mix of outcomes need not match the whole.
